Compound activity deposited in PubChem by ICCB-Longwood Screening Facility, Harvard Medical School.
Mtb MenB inh = M. tuberculosis MenB inhibitors, primary screen, biochemical, absorbance; 1,4-dihydroxy-2-naphthoyl-CoA synthase (Mycobacterium tuberculosis (strain ATCC 25618 / …; MenB enzyme assay, absorbance read-out; some hits fall short of the stated cut; inhibition, %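 (about 12 µg/mL by stock and volumes)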; 100,000 compounds, 0.43% hits;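 active = mean of two replicates above 30%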;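 note: 0% = no compound and 100% = wells with inactive enzyme; the first replicate is given; strong numbers were not always called active; inactives centre near -10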
Target sequence (P9WNP5 whole entry, looked up): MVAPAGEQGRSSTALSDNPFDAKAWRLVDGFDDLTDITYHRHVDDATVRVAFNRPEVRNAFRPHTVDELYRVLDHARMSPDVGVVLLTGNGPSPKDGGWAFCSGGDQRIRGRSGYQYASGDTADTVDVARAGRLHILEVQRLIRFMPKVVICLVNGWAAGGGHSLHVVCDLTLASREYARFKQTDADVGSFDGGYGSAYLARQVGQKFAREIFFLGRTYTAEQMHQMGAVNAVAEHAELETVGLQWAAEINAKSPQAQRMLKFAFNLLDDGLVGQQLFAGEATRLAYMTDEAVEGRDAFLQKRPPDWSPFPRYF
Mtb MbtI inh = MbtI salicylate synthase inhibitors, primary screen, biochemical, fluorescence intensity | inhibition, %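 (about 17 µg/mL by stock and volumes)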 | 100,000 compounds, 0.89% hits | purified MbtI enzyme, fluorescence intensity read-out;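 active = above 50% in both replicates, above 80% if mildly self-fluorescent; inactive = the rest, strongly fluorescent compounds included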;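 note: 0% = mean of negative and 100% = mean of positive controls; one replicate is shown; some compounds called inactive have numbers as strong as hits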
Target sequence (P9WFX0 whole entry, looked up): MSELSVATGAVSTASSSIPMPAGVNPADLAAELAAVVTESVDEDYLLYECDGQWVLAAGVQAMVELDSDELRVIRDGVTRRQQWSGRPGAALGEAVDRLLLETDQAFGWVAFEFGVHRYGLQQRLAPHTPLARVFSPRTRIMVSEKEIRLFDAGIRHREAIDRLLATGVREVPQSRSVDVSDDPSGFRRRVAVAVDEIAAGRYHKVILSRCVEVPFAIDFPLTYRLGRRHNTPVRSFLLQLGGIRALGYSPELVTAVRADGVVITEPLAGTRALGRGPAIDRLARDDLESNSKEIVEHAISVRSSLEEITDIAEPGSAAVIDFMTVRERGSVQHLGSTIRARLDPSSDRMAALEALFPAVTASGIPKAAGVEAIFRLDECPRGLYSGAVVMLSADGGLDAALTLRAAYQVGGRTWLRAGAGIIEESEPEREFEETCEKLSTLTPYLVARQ
Polio RdRp inh = poliovirus RdRp elongation inhibitors, primary screen, biochemical, fluorescence polarization, total intensity; AID 588519, 2011; 150,000 compounds, 0.66% hits; Genome polyprotein (Poliovirus type 1 (strain Mahoney)), P03300; poliovirus polymerase elongation; hits give low values; % elongation, % (compound at 16.7 µg/mL); in the data active = % elongation below about 90%; note: some results filed as inactive read as strong as hits
Polio RdRp inh intensity = also measured in Polio RdRp inh; calls as there; % elongation; measured here: total intensity read-out; formula for this scale not given here;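 total fluorescence in place of polarization; lower means less elongation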
* marks the source's active call; other numbers are inactive results; / = no result given; & = joins results of further samples. Outcome played no part in choosing rows; any-hit rate near 1.7%.

SMILES	Mtb MenB inh	Mtb MbtI inh	Polio RdRp inh	Polio RdRp inh intensity
O=C(NCC(c1ccco1)N1CCCCC1)c1ccccn1 (configuration not stated)	-26	-14	100	112
Cn1c(=O)[nH]c(=O)c2[nH]c(CN3CCOCC3)nc21	-14	2	100	102
CC(C)(C)C(=O)/C=c1\s/c(=C\c2c(F)cccc2F)c(=O)n1CC(=O)NCc1ccco1	-60	-4	113	117
COC(=O)[C@@H](N)CCCN=C(N)N[N+](=O)[O-]	-5	5	101&100	100&99
CCCc1c(-c2nc(-c3ccc(Cl)cc3)no2)cnn1-c1ccccc1	-1	-4	102	104
O=S(=O)(NC1CCCCC1Nc1ccccc1Br)c1ccccc1 (configuration not stated)	-5	-6	103	107
Cc1cc(Br)ccc1NC(=O)CCNS(=O)(=O)c1cccc2nsnc12	-7	17	100	100
C[C@H](NC(=O)c1ccc(C(C)(C)C)cc1)C(=O)N1CCOCC1	-25	-1	101	101
CC(SC1CCCC1)C(=O)NC(C)(C#N)C(C)C (configuration not stated)	-10	-13	107	108
O=C(Nc1ccc(-c2nnc(-c3ccccc3)o2)cc1)C1CCCC1	-21	-150	102	104
CCCN(CC(=O)Nc1ccc(F)c(F)c1F)Cc1cc(=O)n2ccsc2n1	-11	8	105	109
CC1CC(C)CN(C(=O)CSc2n[nH]c(N)n2)C1 (configuration not stated)	4	-7	106	97
COCCn1cnnc1SCC(=O)Nc1ccc(Cl)cc1F	-6	-2	100	106
O=C(Nc1ccc(Cl)cc1)NC(C(=O)O)c1ccccc1 (configuration not stated)	-12	-9	98	104
Cc1sc2c(c1C)C(=O)/C(=C\Nc1ncccn1)S(=O)(=O)N2C	3	7	96	108
CCOC(=O)Nc1ccc2c(CCl)cc(=O)oc2c1	/	22	103	107
O=C1CSCC(=O)N1c1ccccn1	-21	2	101	99
O=C(CN1CCCN(Cc2ccccc2)S1(=O)=O)NCCc1ccccc1	-20	10	101	101
COCCN1CCn2c(nc3cc(Nc4nnc(C)c5ccccc45)ccc32)C1	0	-12	102	106
Cc1cc(=O)n2nc(N(C)CC(=O)NCc3ccccc3)sc2n1	-6	-9	103	107

Quoted at random: 2 records from the list
SMILES	Mtb MenB inh	Mtb MbtI inh	Polio RdRp inh	Polio RdRp inh intensity
CCCc1c(-c2nc(-c3ccc(Cl)cc3)no2)cnn1-c1ccccc1	-1	-4	102	104
Cc1sc2c(c1C)C(=O)/C(=C\Nc1ncccn1)S(=O)(=O)N2C	3	7	96	108

Structures listed so far containing an aryl thioether with sulfur outside any ring:
SMILES	Mtb MenB inh	Mtb MbtI inh	Polio RdRp inh	Polio RdRp inh intensity
CC1CC(C)CN(C(=O)CSc2n[nH]c(N)n2)C1 (configuration not stated)	4	-7	106	97
COCCn1cnnc1SCC(=O)Nc1ccc(Cl)cc1F	-6	-2	100	106

The list goes on.
SMILES	Mtb MenB inh	Mtb MbtI inh	Polio RdRp inh	Polio RdRp inh intensity
Cc1ccccc1C(=O)Nc1ccccc1N1CCN(C)CC1	-69	-2	104	103
O=C(O)c1ccc(NC(=S)N2CCCCC2)cc1	1	3	102	102
S=C1NNC2(CC3CC2C2CCCC32)NN1 (configuration not stated)	-27	-10	91	104
COc1ccc(-c2nc(-c3ccc(C)cc3C)cs2)cc1	-11	10	108	105
NC(=O)N/N=C/c1sc(=O)n(Cc2cccc(C(=O)O)c2)c1Cl	5	9	105	105
Cc1cccc(Nc2cc(C)nc3ccccc23)c1	-18	/	98	102
Cc1nnc(-c2ccccc2)o1	-3	/	106	105
COc1ccc(C2Nn3c(nnc3C3CC3)SC2C(=O)c2ccc(F)cc2)cc1 (configuration not stated)	-16	-4	105	103
CCc1nc2ccccc2c(=O)n1-c1ccccc1Cl	-25	/	105	97
CC1=CC2=C(C1=O)C(C(C)C)C(C#N)=C(N)S2 (configuration not stated)	-30	-1	107	101
O=C(Nc1c[nH]c(=O)[nH]c1=O)c1cccc(C(=O)Nc2c[nH]c(=O)[nH]c2=O)c1	18	16	100	101
CCN(Cc1ccccc1)C(=O)Cn1c(=O)n(NC(=O)c2ccccc2)c(=O)c2sccc21	-7	-5	102	108
C=CCOC(=O)C1=C(C)NC(SCC(N)=O)=C(C#N)C1c1ccccc1 (configuration not stated)	-56	23	101	100
O=C(COc1ccc(F)cc1)N(CC1=CCS(=O)(=O)C1)c1ccccc1	-2	-8	100	96
COC(=O)c1ccc(CN)cc1	/	-13	101	106
Cc1cccc(NC(=O)Cn2cnc3sc(C)c(S(=O)(=O)N4CCC(C)CC4)c3c2=O)n1	-6	-8	101	103
COc1cccc(CNC(=O)Cn2c(=O)c3cccn3c3ccc(F)cc32)c1	-5	-3	102	104
O=c1c2ccccc2n(Cc2cc(=O)n3ccccc3n2)c(=O)n1CCCS(=O)(=O)C1CCCCC1	-28	6	98	103
O=C1CCCN1c1cccc2ccccc12	14	1	99	100
CCOC(=O)/C=C1\SCC(=O)N1CC(O)CN1C(=O)CS/C1=C\C(=O)OCC	-15	-9	101	116

Grouped by structure, the compounds so far containing a Cl atom
SMILES	Mtb MenB inh	Mtb MbtI inh	Polio RdRp inh	Polio RdRp inh intensity
CCCc1c(-c2nc(-c3ccc(Cl)cc3)no2)cnn1-c1ccccc1	-1	-4	102	104
COCCn1cnnc1SCC(=O)Nc1ccc(Cl)cc1F	-6	-2	100	106
O=C(Nc1ccc(Cl)cc1)NC(C(=O)O)c1ccccc1 (configuration not stated)	-12	-9	98	104
CCOC(=O)Nc1ccc2c(CCl)cc(=O)oc2c1	/	22	103	107
NC(=O)N/N=C/c1sc(=O)n(Cc2cccc(C(=O)O)c2)c1Cl	5	9	105	105
CCc1nc2ccccc2c(=O)n1-c1ccccc1Cl	-25	/	105	97

The listing continues.
SMILES	Mtb MenB inh	Mtb MbtI inh	Polio RdRp inh	Polio RdRp inh intensity
CC1CCc2c(nc3ncnn3c2NCCN(C)C)C1 (configuration not stated)	-21	15	102	102
COC(=O)c1cccc(N=C(N)N=C(N)N)c1	-14	-15	108	112
CN(Cc1cccs1)C(=O)[C@@H]1CCCN1C(=O)c1cccs1	6	5	98	104
CC1CN(C(=O)CCC(=O)O)c2ccccc2O1 (configuration not stated)	4	8	102	104
N#C/C(=C\c1ccco1)C(=O)Nc1ccccc1	-78	4	104	103
O=C(O)CCC12CC3CC(CC(Cl)(C3)C1)C2	/	-6	99	101
O=C(CCc1ccccc1)NN1C(=O)CCC1=O	10	12	98	101
COc1ccc(Br)cc1CN1CCN(C(=O)Cc2ccccc2)CC1	-12	-5	104	101
Cc1oc(-c2ccc(Cl)cc2)nc1CS(=O)CC(=O)NC1CCCC1 (configuration not stated)	-16	9	102	104
Cc1ccc(S(=O)(=O)N2c3ccccc3C(C)(c3ccccc3)CC2(C)C)cc1 (configuration not stated)	-7	/	99	107
O=C(NNc1ccccc1)Nc1ccccc1F	-6	2	100	110
CC(=O)Nc1cc(Cl)ccc1N1CCOCC1	5	-6	99	103
CSc1ncccc1C(=O)OC(C)C(N)=O (configuration not stated)	2	1	100	106
CCn1cc(C(=O)O)c(=O)c2cnc(N3CCN(C(=S)Nc4ccccc4)CC3)nc21	4	0	103	100
CC1CCc2c(cnc3ncnn23)C1 (configuration not stated)	10	43	106	100
NC(N)=NC(N)=Nc1ccc(Cl)cc1	-4	-11	105	113
CCN(CC)S(=O)(=O)c1ccc(N=Cc2c(O)n(-c3ccccc3)c(=O)[nH]c2=O)c(C)c1	-8	-176	102	106
Cc1ccc2[nH]cc(NC(=O)NCCN(C)C)c(=O)c2c1	-1	91	100	100
Cc1cccc(N(C(=O)Nc2ccc(Cl)cc2)C2=NCC(C)S2)n1 (configuration not stated)	0	/	107	100
Oc1c(Br)cc(Br)cc1C=NC1CC1	-8	36	66	106

The final two entries of the part before open the next one.
SMILES	Mtb MenB inh	Mtb MbtI inh	Polio RdRp inh	Polio RdRp inh intensity
Cc1cccc(N(C(=O)Nc2ccc(Cl)cc2)C2=NCC(C)S2)n1 (configuration not stated)	0	/	107	100
Oc1c(Br)cc(Br)cc1C=NC1CC1	-8	36	66	106
CC1=CCC2(CC1)COC(C(C)C)OC2 (configuration not stated)	-76	-1	103	103
CCn1c(C(=O)Nc2ccc(C(C)C)cc2)cc2sc(Cl)cc21	-3	-2	100	104
Cc1cc(/C=C2\C(=O)NC(=S)N(C)C2=O)c(C)n1C1CC1	-32	-2	87	113
Cc1nc(-c2ccc3c(c2)CCN3Cc2nnc(-c3ccco3)o2)cs1	-2	28	108	103
C=CCn1c(-c2ccccc2)nn(CN2CC(C)OC(C)C2)c1=S (configuration not stated)	-17	/	104	94
Cc1ccc(C2C(C#N)=C(N)Oc3c2c(=O)oc2ccccc32)o1 (configuration not stated)	-15	/	104	111
FC(F)(F)c1nc2ccccc2n1CCOc1ccccc1	-13	0	104	107
COc1ccc(N2CCN(C(=S)C3CCCCC3)CC2)cc1	2	15	/	/
O=C(CN1CCN(S(=O)(=O)N2CCCCC2)CC1)Nc1ccc(Br)cc1	6	8	/	/
CN(CC(=O)Nc1ccc(Cl)cc1)C(=O)c1ccc(OC(F)F)cc1	-6	3	110	109
COc1ccc(C(CNC(=O)Nc2ccccc2)N2CCN(C)CC2)cc1 (configuration not stated)	-20	3	105	105
COc1cc(OC)nc(NC(=O)CSc2nc3ccccc3s2)n1	-12	11	99	102
N#Cc1ccc(OCn2nnc3ccccc3c2=O)cc1	1	-7	102	98
O=C(CS(=O)(=O)c1ccccc1)N1CCc2ccccc21	-4	-19	102	103
CC(C)CC(NS(=O)(=O)c1cccs1)C(=O)O (configuration not stated)	2	-30	99	96
CCC1CCCCN1C(=O)c1ccc(OC)cc1 (configuration not stated)	-11	/	107	110
COc1cccc(CNC(=O)CN(C)S(=O)(=O)c2ccc3c(c2)n(C)c(=O)c(=O)n3C)c1	13	2	100	96
Fc1ccc(-c2cc3c(nn2)Nc2ccccc2N3)cc1	-44	-13	104	104
COc1cc(C(=O)N2CCN(C(=O)Cc3ccccc3)CC2)cc(OC)c1OC	2	/	103	98
O=C(NC1C2CCCC1CN(C1CC1)C2)c1ccc(Cl)cc1 (configuration not stated)	-10	-8	105	103
COC(CNC(=O)c1cc(-c2ccccn2)nc2ccc(S(=O)(=O)N3CCC(C)CC3)cc12)OC	7	-6	103	105
NC(=O)C1CCN(C(=O)C2CC(c3ccccc3Cl)=NO2)CC1 (configuration not stated)	-2	-4	100	103
O=c1[nH]c2ccc(F)cc2c(O)c1-c1ccccc1	-5	11	103	105
CN(C)c1ccc(C(CNC(=O)CSc2nnc(-c3ccc(F)cc3)o2)c2c[nH]c3ccccc23)cc1 (configuration not stated)	3	2	/	/
C[N+]1(CCCl)CC[N+](C)(CCCl)CC1 (configuration not stated)	/	0	102	96
CC(NC(=O)C1CCN(c2ncccn2)CC1)c1ccncc1 (configuration not stated)	-3	41	102	100
COc1c(C)cccc1C(=O)Nc1cc(Cl)ccc1N1CCOCC1	2	8	101	99
COCCNC(=O)c1nc(Nc2ccc(F)cc2F)c2ccccc2n1	14	-6	101	105
CC(C)(C)C(O)CSc1nc2ccccc2[nH]1 (configuration not stated)	-7	3	103	102
c1ccc(C2CCC(NCCN3CCOCC3)CC2)cc1 (configuration not stated)	-8	-18	100	103
CCCCC1(COC(=O)CCC(=O)O)C(=O)N(c2ccccc2)N(c2ccccc2)C1=O	6&3	-5&-13	100&98	102&101
CC(C)CCNC(=O)c1ccc2nc(-c3cccs3)c(-c3cccs3)nc2c1	-17	-1	105	109
CC(C)(C)C(=O)CSc1nc(N)c(C#N)c(-c2cccs2)c1C#N	-12	/	101	108
Cc1ccc(-c2cc(C(=O)N3CCCCC3C)c3ccccc3n2)cc1 (configuration not stated)	/	6	102	107
